# Vaccinia Venus – qHTS for Stage-Specific Inhibitors of Vaccinia Orthopoxvirus: Venus Reporter Primary qHTS. Vaccinia virus Venus reporter expression, fluorescence. actives 0.46% (n = 330,000). Potency, µM (top dose mostly 36.5 µM), for inactives: at the highest dose activity change, negative = inhibition, usual class: inhibitors; active means well fitted inhibition curve with a large enough effect; inconclusive means small, poorly fitted or top-dose-only effect; inactive means no such curve, though single readings can be large or run the other way; tested in A549 cells; note: nearly all actives have a fitted effect of over 30% in size; inactives centre near -10
# Vaccinia mCherry – qHTS for Stage-Specific Inhibitors of Vaccinia Orthopoxvirus: mCherry Reporter Primary qHTS; Vaccinia virus mCherry reporter infection, fluorescence; about a quarter of the inactives have no number; Potency, µM (highest dose often 36.5 µM), inactives show top-dose activity change, negative = inhibition, most hits filed as inhibitors; actives 0.63% (n = 310,000); active = well fitted inhibition curve with a large enough effect; inconclusive = small, poorly fitted or top-dose-only effect; inactive = no such curve, though single readings can be large or run the other way; tested in A549 cells; note: nearly all actives have a fitted effect of over 35% in size; inactives centre near -10
# Starred values were filed as active, the others as inactive; i = inactive; u = inconclusive; x = no result given; [ ] = remark or other dose. % is set by controls: 0 for no effect and ±100 for the full control effect; potency is the fitted concentration of half-maximal effect.
1. CC(=O)Nc1ccc(S(=O)(=O)NCCSCc2ccccc2Cl)cc1
2. Cc1ccsc1C(=O)N1CCC1(C)C(=O)NS(=O)(=O)c1cccc(F)c1 (configuration not stated)
3. OC1/C(=C/c2ccc(Cl)cc2Cl)N2CCC1CC2 (configuration not stated)
4. CC(C)(C)NC(=O)[C@]1(C)CCC[C@@]2(C)C3CC[C@@]4(C)C[C@]3(CCC21)CC4=O (some centres not stated)
5. COc1ccc(NCc2nnc(SCC(=O)Nc3ccc(OC)cc3)n2C)cc1
6. CCOC(=O)C(C(=O)OCC)C1N=C(N)N=C2Oc3ccccc3N21 (configuration not stated)
7. C/C(=N\NC(=O)C12CCC(C)(C(=O)O1)C2(C)C)c1ccccc1O (configuration not stated)
8. COc1ccc(NC(=S)N(CCCN2CCOCC2)Cc2cn(C)c3ccccc23)cc1

Assay by compound	1	2	3	4	5	6	7	8
Vaccinia Venus	u	-16%	-7%	-11%	-12%	-16%	-24%	-1%
Vaccinia mCherry	-15%	i	-12%	i	-23%	i	u	i

# Entries listed so far containing a Cl atom (2):
1. CC(=O)Nc1ccc(S(=O)(=O)NCCSCc2ccccc2Cl)cc1
3. OC1/C(=C/c2ccc(Cl)cc2Cl)N2CCC1CC2 (configuration not stated)

Assay by compound	1	3
Vaccinia Venus	u	-7%
Vaccinia mCherry	-15%	-12%

# The list continues.
9. Cc1cc(C)cc(NC(=O)Cn2c(=O)c3ccccc3n3nncc23)c1
10. O=c1[nH]c(=O)n(CCc2ccc(F)cc2)c(O)c1C=NCCCN1CCOCC1
11. c1ccc2sc(-n3cc(C4CCCCC4)nn3)nc2c1
12. COc1ccc(S(=O)(=O)N2CCCCCC2)cc1N(C)S(=O)(=O)c1ccccc1
13. CC(NC(=S)Nc1ccc(S(=O)(=O)N2CCOCC2)cc1)C1CC2CCC1C2 (configuration not stated)
14. CCOC(=O)C1CCN(S(=O)(=O)c2cc(Br)cc3c2N(C(=O)CC)CC3)CC1
15. O=[N+]([O-])c1cc([N+](=O)[O-])c(Oc2ccc(Cl)c3cccnc23)cc1NN1CCCCC1
16. Cc1cc2oc(=O)cc(C)c2c2occ(-c3ccc(Cl)cc3)c12

Assay by compound	9	10	11	12	13	14	15	16
Vaccinia Venus	-8%	-12%	1%	-16%	-18%	-10%	-26%	7%
Vaccinia mCherry	0%	x	-6%	-28%	-22%	2%	-11%	10%

17. COc1cccc(NC(=O)C2CC2)c1
18. CCOC(=O)COc1cccc2c(=O)n(CC(=O)N3CCN(C(=O)OCC)CC3)ccc12
19. Cn1cnnc1SCC(=O)N1N=C2/C(=C/c3ccco3)CCCC2C1c1ccco1 (configuration not stated)
20. O=C(Nc1cccc(-n2cccn2)c1)C1CCCN(Cc2cc3ccccc3[nH]2)C1 (configuration not stated)
21. COc1ccc([C@H]2CN(CCc3ccccc3)C(=O)[C@@H]2CC(=O)Nc2ccccc2)cc1
22. Clc1ncnc2[nH]ccc12
23. CC(C)Nc1nc(Cl)nc(NC(C)C)n1
24. CCc1ccc(S(=O)(=O)c2nnn3c2nc(NCc2cccs2)c2sccc23)cc1

Assay by compound	17	18	19	20	21	22	23	24
Vaccinia Venus	-4%	1%	-3%	-28%	-12%	-15%	-9%	u
Vaccinia mCherry	i	22%	-11%	13µM*	-2%	-17%	-7%	-1%

# Copied from the listing, 2 compounds:
23. CC(C)Nc1nc(Cl)nc(NC(C)C)n1
24. CCc1ccc(S(=O)(=O)c2nnn3c2nc(NCc2cccs2)c2sccc23)cc1

Assay by compound	23	24
Vaccinia Venus	-9%	u
Vaccinia mCherry	-7%	-1%

# (next part)
25. CCCS(=O)(=O)NC(=O)C1(C)CCCN(C(=O)c2cc(C)n(C(C)(C)C)n2)C1 (configuration not stated)
26. CSc1ncc(Cl)c(C(=O)Nc2ccc(S(=O)(=O)N3CCOCC3)cc2)n1
27. CCC(=O)c1ccc(OC(=O)Cc2ccc(OC)cc2)cc1
28. CN(Cc1ccc(Cl)cc1Cl)C(=O)c1cccc(S(=O)(=O)N2CCN(c3ccccc3)CC2)c1
29. O=C(CCc1nc2ccccc2s1)Nc1ccccc1
30. COc1ccc2[nH]c3c(=O)n(CCCCC(=O)N4CCC(C(N)=O)CC4)c(=S)[nH]c3c2c1
31. Cc1ccc(S(=O)(=O)N2CCN(C(=O)CCC(=O)NCCc3ccc(F)cc3)CC2)cc1
32. O=C(CCn1cnnn1)N1CCCC(Nc2ccc(F)c(F)c2)C1 (configuration not stated)

Assay by compound	25	26	27	28	29	30	31	32
Vaccinia Venus	6%	-30%	-9%	-26%	-17%	-7%	-1%	-15%
Vaccinia mCherry	38%[activator]	x	i	-10%	-4%	i	-1%	-11%

# Of the compounds above, these have a thiophene ring, fused or not:
2. Cc1ccsc1C(=O)N1CCC1(C)C(=O)NS(=O)(=O)c1cccc(F)c1 (configuration not stated)
24. CCc1ccc(S(=O)(=O)c2nnn3c2nc(NCc2cccs2)c2sccc23)cc1

Assay by compound	2	24
Vaccinia Venus	-16%	u
Vaccinia mCherry	i	-1%

# Further compounds:
33. O=C(N/N=C/c1ccc2c(c1)OCO2)c1sc2cccc(Cl)c2c1Cl
34. CC(C)OC(=O)c1cccc(C(=O)OCc2ccco2)n1
35. Cc1cc(NN)nc(NS(=O)(=O)c2ccccc2Cl)n1
36. COc1ccc(N=Nc2nc3ccc(Br)cc3n2C)cc1
37. Cc1onc(-c2ccccc2)c1C(=O)OCC(=O)N(CC(C)C)c1c(N)n(Cc2ccccc2)c(=O)[nH]c1=O
38. COc1ccc(/C=C2\SC(=N)N(c3nccs3)C2=O)cc1OC
39. C/C(CC(=O)Nc1ccc2c(c1)OCCO2)=N\NC(=O)C(=O)Nc1ccccc1C
40. Cc1cc(C)c2c(N)c(C(=O)Nc3ncc(C)s3)sc2n1

Assay by compound	33	34	35	36	37	38	39	40
Vaccinia Venus	-6%	-5%	-3%	42%[activator]	-13%	-9%	-8%	-24%
Vaccinia mCherry	-12%	-15%	i	-3%	-19%	-15%	-4%	-2%

41. CCOC(=O)c1ccc(NC(=O)CC2C(=O)N(c3ccccc3)C(=O)N2C2CCCCC2)cc1 (configuration not stated)
42. COCCN(CC(=O)Nc1ccc(F)cc1)S(=O)(=O)c1ccc(S(=O)(=O)N2CCCC2)cc1
43. N#Cc1ccc(C(=O)OCCCc2cc3ccccc3c(=O)o2)cc1
44. O=C(COc1cccnc1[N+](=O)[O-])Nc1ccccc1Sc1ccccc1
45. COc1cccc2c(=O)n(CC(=O)N3CCCCC3)ccc12
46. COc1ccccc1NS(=O)(=O)c1cc(NC(=O)c2ccc(Cl)nc2)ccc1N1CCCC1
47. CC1=C(C(=O)N2CCOCC2)CC(CC(=O)NCCc2ccccn2)C(=O)N1CCCN1CCCC1=O (configuration not stated)
48. CCc1ccc(Cc2cnc(NC(=O)C3=NCCN3)s2)cc1

Assay by compound	41	42	43	44	45	46	47	48
Vaccinia Venus	-1%	-8%	-10%	-1%	2%	-24%	1%	-4%
Vaccinia mCherry	-7%	-2%	i	-3%	-27%	-4%	-8%	-4%

49. Cc1ccccc1CSCC(=O)c1c(N)n(CC(C)C)c(=O)n(C)c1=O
50. COc1ccc(Br)cc1CNC(=O)CCSCc1ccc(C)cc1
51. Cc1ccc(C(=O)OCC(=O)N2C(C)CCCC2C)cc1S(=O)(=O)N1CCOCC1 (configuration not stated)
52. CC(OC(=O)c1ccc(NS(=O)(=O)c2ccc3[nH]c(=O)[nH]c3c2)cc1)C(=O)Nc1cccc(Cl)c1Cl (configuration not stated)
53. Cc1ccccc1Cn1nc(C)c(NC(=O)C(F)(F)F)c1C
54. Cc1sc2ncnc(NCc3cccnc3)c2c1C
55. CCOC(=O)N1CCN(C(=O)COc2ccc(Cl)c(C)c2)CC1
56. Cc1nc2ccccc2c(=O)n1-c1ccc(NS(=O)(=O)c2ccccc2)cc1

Assay by compound	49	50	51	52	53	54	55	56
Vaccinia Venus	-26%	-9%	-8%	-7%	-14%	-14%	-10%	-15%
Vaccinia mCherry	x	-14%	-22%	i	i	i	-6%	-14%

57. Cc1ccc(-n2ncc(C(=O)N(C)Cc3ccccc3)c2-n2cccc2)cc1
58. Cc1ccc(S(=O)(=O)N(CCCc2c(C)nc[nH]c2=O)c2ccccc2)cc1
59. CCOC(=O)c1ccc(/C=C2/C=C(c3ccccc3)N(c3ccc(Cl)c(C(=O)O)c3)C2=O)cc1
60. Cn1cnnc1Sc1ccc(C(F)(F)F)cc1[N+](=O)[O-]
61. CCOC(=O)c1sc2ncn(/N=C/c3ccc(O)cc3)c(=O)c2c1C
62. COC(=O)c1ccc(/C=N/NC(=O)c2ccccc2Cl)cc1
63. CCS(=O)(=O)C(=C1Nc2ccccc2N1)S(=O)(=O)CC
64. Cn1c(=O)c2c(SCc3ccccn3)nc(CC(C)(C)C)nc2n(C)c1=O
65. CN(C)/N=N/c1nc[nH]c1C(N)=O

Assay by compound	57	58	59	60	61	62	63	64	65
Vaccinia Venus	-12%	-6%	22%	-10%	-16%	-21%	-4%	-27%	-22%
Vaccinia mCherry	-4%	-22%	-18%	-19%	u	i	x	-26%	-5%

# Single records, as listed above. Values in the order: Vaccinia Venus, Vaccinia mCherry
# CC(C)(C)NC(=O)[C@]1(C)CCC[C@@]2(C)C3CC[C@@]4(C)C[C@]3(CCC21)CC4=O (some centres not stated) is listed as -11%, i
# N#Cc1ccc(C(=O)OCCCc2cc3ccccc3c(=O)o2)cc1 is listed as -10%, i
# COc1ccc(S(=O)(=O)N2CCCCCC2)cc1N(C)S(=O)(=O)c1ccccc1 is listed as -16%, -28%

# Assay outcomes as filed in PubChem.
